Screens (PubChem)
VDR inhibitor – vitamin D3 receptor (human) inhibition; VDR-SRC2-3 peptide fluorescence polarization, 2 h; Potency, µM, without a hit: max response, negative = inhibition, usual class: inhibitors; AID 504847; 400,000 tested, 0.93% active; P11473; active = well fitted inhibition curve with a large enough effect; inconclusive = small, poorly fitted or top-dose-only effect, or another doubt; inactive = no such curve, though single readings can be large or run the other way; note: series mostly up to about 120 µM
Target sequence (P11473 whole entry, looked up): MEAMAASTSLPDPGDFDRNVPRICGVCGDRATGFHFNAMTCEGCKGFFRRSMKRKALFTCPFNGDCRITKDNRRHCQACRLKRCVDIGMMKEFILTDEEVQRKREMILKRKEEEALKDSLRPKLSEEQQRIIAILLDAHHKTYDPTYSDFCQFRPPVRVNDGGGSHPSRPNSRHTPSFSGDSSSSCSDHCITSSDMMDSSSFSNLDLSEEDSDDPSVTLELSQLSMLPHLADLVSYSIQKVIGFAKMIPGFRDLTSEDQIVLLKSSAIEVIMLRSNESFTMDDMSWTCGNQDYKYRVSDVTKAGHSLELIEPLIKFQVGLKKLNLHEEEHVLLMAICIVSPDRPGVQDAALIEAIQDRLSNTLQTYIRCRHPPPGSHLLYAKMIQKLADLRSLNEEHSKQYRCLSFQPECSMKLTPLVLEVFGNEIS
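After 23 nl compound addition and a short centrifugation, plates sat for 2 hours at ambient temperature; polarization of fluorescence then indicated loss of VDR binding to peptide SRC2-3.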
* hit, by the source's call; ? = inconclusive; & = joins results of further samples. % is set by controls: 0 for no effect and ±100 for the full control effect; potency is the fitted concentration of half-maximal effect. Not all compounds are listed (hit frequency here may not be typical).

item	molecule	VDR inhibitor
1	CC1(C)OC(=O)N(c2ccccn2)C1(C)O (stereo not given)	-12.1%
2	CCCN(c1ccc(C)cc1)c1nc(=O)c2cccnc2s1	4.4%
3	COc1ccc(CNC(=O)COC(=O)c2cc(-c3cccs3)nc3ccccc23)cc1OC	-2.5%
4	CC(C)C(NS(=O)(=O)c1ccccc1F)C(=O)N1CCc2ccccc2C1 (stereo not given)	-10.0%
5	CC(=O)NC(NC(=S)Nc1ccc(S(N)(=O)=O)cc1)C(Cl)(Cl)Cl (stereo not given)	-16.2%
6	O=S(=O)(CCc1ccccc1)N1CCOCC1	6.1%
7	COn1c(SCC(N)=O)nc2ccccc2c1=O	9.2%
8	Nc1ccc(-c2nc3ccc(-c4nc5ccc(N)cc5[nH]4)cc3[nH]2)cc1	1.9%&31.3%&17.0%
9	Cc1nn2c(=O)cc(COC(=O)c3ccc(S(=O)(=O)N4CCCCC4)cc3)nc2s1	-12.1%
10	C=CCNC(=S)Nc1cc(C)ccn1	-9.3%
11	COc1ccc(NC(=S)NC(=O)/C=C/c2ccc(F)cc2)cc1	-4.2%
12	COC(=O)c1csc(S(=O)(=O)N2CCCCC2)c1OC	-17.0%
13	CN1CCN(S(=O)(=O)c2cnccc2N2CCN(c3cccc(Cl)c3)CC2)CC1	-9.2%
14	COc1ccc(/C=C/C(=O)NCCn2c(C)cc3ccccc32)cc1OC	-2.4%
15	Cc1cccc(N(CC(=O)NCc2ccccc2)S(C)(=O)=O)c1C	-10.8%
16	COc1ccc(/C=C/c2nc3ccccc3c(=O)n2-c2cccc(C(F)(F)F)c2)cc1	1.1%
17	CC(=O)c1cccc(NC(=O)CSc2ncc(C(=O)Nc3ccccc3)c(=O)n2C)c1	-18.2%
18	COc1ccc(C(=O)Nc2nc3nccc(-c4ccccc4)n3n2)cc1	-13.1%
19	CCC(=O)c1cc2c(cc1NC(=O)c1ccccc1)OCCO2	-5.7%
20	CCCC(=O)Nc1ccc2c(c1)nc(CCN1CCCCC1)n2C	-1.8%
21	CC(=O)N1c2ccc(S(=O)(=O)N3CCC(C(=O)NCc4ccccc4)CC3)cc2CC1C (stereo not given)	-7.4%
22	Cn1cc(S(=O)(=O)N2CCOCC2)cc1C(=O)Nc1cccc(Cl)c1	0.7%
23	COc1ccc(-n2c(C)cc(C(=O)CN3CCCCC3)c2C)cc1	6.7%
24	CCOC(=O)C1CCN(C(=O)CCS(=O)(=O)c2ccc3c(c2)n(C)c(=O)c(=O)n3C)CC1	15.5%
25	Cc1ccc2nc(NC(=O)COC(=O)c3ccco3)sc2c1	-5.8%

Copied from above: nos. 20 to 21
item	molecule	VDR inhibitor
20	CCCC(=O)Nc1ccc2c(c1)nc(CCN1CCCCC1)n2C	-1.8%
21	CC(=O)N1c2ccc(S(=O)(=O)N3CCC(C(=O)NCc4ccccc4)CC3)cc2CC1C (stereo not given)	-7.4%

(more compounds)
item	molecule	VDR inhibitor
26	CCN(CC)C(=O)COc1ccc(C=O)cc1OC	12.1%
27	CC1CN(C(=O)c2cnn3c(C(F)F)cc(-c4ccccc4)nc23)CC(C)O1 (stereo not given)	9.6%
28	CC(C)CNc1nc(N)c([N+](=O)[O-])c(NCC2CCCO2)n1 (stereo not given)	-4.2%
29	O=C(Nc1ccc2c(c1)nc1n2CCOC1)C1CCCCC1	4.3%
30	CCOC(=O)N1CCN(C(=O)CCC(=O)c2ccc(OCC)cc2)CC1	0.6%
31	CCOc1ccc(N(CC(=O)NC2CCCC2)C(=O)CCCC(=O)Nc2ccccn2)cc1	-1.3%
32	CCN(CC)S(=O)(=O)c1ccc(NC(=O)c2ccccn2)cc1	3.2%
33	COc1ccccc1NC(=S)N1CCc2cc(OC)c(OC)cc2C1	-15.0%
34	CCC(=O)c1ccc(OCC(=O)NC2CCCC2)cc1	-5.3%
35	CCC1CCCCN1S(=O)(=O)c1ccc2c(c1)CCN2C(C)=O (stereo not given)	-2.5%
36	Cc1cc(/C=N/NC(N)=O)c(C)n1C1CCCCC1	2.3%
37	CC(C)(CO)NC(=O)CC1C(=O)NCCN1Cc1ccc(-c2ccccc2)cc1 (stereo not given)	6.5%
38	C=CCOC(=O)C1CC=CCC1C(=O)Oc1ccc(F)cc1F (stereo not given)	-8.2%
39	CC1CCc2c(sc(NC(=O)Cn3nc(C(=O)O)c4ccccc4c3=O)c2C#N)C1 (stereo not given)	-8.9%
40	CC1(NC(=O)COc2ccccc2-c2ccccc2)CCS(=O)(=O)C1 (stereo not given)	-3.4%
41	O=C(NCc1cccc(C(F)(F)F)c1)N1CCN(C(=O)c2ccccc2)CC1	-5.8%
42	CCS(=O)(=O)N1CCC(C(=O)N2CCN(c3ccccc3)CC2)CC1	-1.6%
43	CCn1c(SCC(=O)c2ccc(O)c(O)c2)nnc1-c1ccccc1OC	0.8%
44	CCCCNC(=O)Cn1c(SCc2cccc(Cl)c2)nc2ccncc21	-15.1%
45	COc1cccc2cc(C(=O)c3ccccc3)oc12	-16.2%
46	Nc1c(C(=O)Nc2ccc(Br)cc2)sc2nc(-c3ccncc3)ccc12	-9.0%
47	COc1ccccc1NC(=O)CSC1=Nc2ccccc2C2=NC(CC(=O)NCc3ccccc3)C(=O)N12 (stereo not given)	-1.4%
48	O=C(CCCc1c[nH]c2ccccc12)N[C@@H](Cc1c[nH]c2ccccc12)C(=O)O	-7.2%
49	Cc1ccc(C(CCN)c2ccco2)cc1 (stereo not given)	1.1%
50	Cc1cc(S(=O)(=O)N2CCOCC2)ccc1OCC(=O)N1CCOCC1	-7.4%
51	CCCCN(C)CCNC(=O)Cn1ncc2c([nH]c3ccccc32)c1=O	11.3%
52	O=S(=O)(c1cccc(COc2ccc(Cl)cc2Cl)c1)N1CCOCC1	-8.4%
53	Cc1cnc(C(=O)OCC(=O)NCCCc2ccccc2)cn1	-21.4%
54	O=C1CCC(C(=O)OCC(=O)Nc2cc(Cl)ccc2F)=NN1	-8.6%
55	CC(C)CCN1CCN(Cc2nc(-c3ccccc3)cs2)CC1CCO (stereo not given)	10.4%
56	O=C(Nc1nccs1)C1CCCN1S(=O)(=O)c1ccc(Cl)cc1 (stereo not given)	15.7%
57	COc1ccc(CCNC(=O)C(=O)NCC2OCCN2S(=O)(=O)c2cc(F)ccc2F)cc1OC (stereo not given)	1.9%
58	O=S(=O)(NCCc1ccccn1)c1ccc(-c2ccccn2)s1	6.2%
59	CC1CN(c2nc3c(c(=O)n(C)c(=O)n3C)n2Cc2c(Cl)cccc2Cl)CC(C)O1 (stereo not given)	20.0%
60	COc1ccc(C(=O)N2CC(=O)Nc3ccccc32)cc1S(=O)(=O)N1CCOCC1	-9.3%
61	Cc1ccc(N(CC(=O)NC(C)(C)C)C(=O)CS(=O)CC(=O)Nc2ccc3c(c2)OCO3)cc1 (stereo not given)	-17.3%
62	Cc1ccsc1/C=N/n1cnc2sc(C)c(C)c2c1=O	-1.5%
63	CCOc1cc(-c2noc(CCCC(=O)NC3CCCCC3)n2)ccc1OC	-11.2%
64	OCC(O)C(O)C(O)c1cnn(-c2ccccc2)n1 (stereo not given)	0.3%
65	Cc1ccc(Sc2cnc(N)nc2C)cc1	-14.6%
66	COc1ccc(OC)c(-c2nc(C(=O)NCCCN3CCOCC3)cc3c2[nH]c2ccccc23)c1	0.7%
67	O=C(CN1C(=O)c2ccccc2Sc2ncccc21)Nc1cccc(C(F)(F)F)c1	-0.5%
68	O=C(Nc1ccc2nc3n(c(=O)c2c1)CCCC3)c1cccnc1Cl	?
69	CCCc1cc(C(=O)Cc2ccccn2)c(O)cc1O	-12.9%
70	O=C(CSc1ccccn1)Nc1ccc(NC(=O)CSc2ccccn2)cc1	10.1%
71	Nc1nc2c(nc(SCc3ccccc3Br)n2C2OC(CO)C(O)C2O)c(=O)[nH]1 (stereo not given)	27.6%
72	Fc1ccc(N/N=C2/CCSc3sccc32)c(F)c1	-21.5%
73	CCC(Sc1ncccc1Nc1ccccn1)C(=O)O (stereo not given)	?
74	CN(C)c1nc(N/N=C\c2ccc(Cl)c([N+](=O)[O-])c2)nc(Nc2ccc(F)cc2)n1	5.9%
75	O=c1c2cccnc2n(-c2ccccc2)n1Cc1c(Cl)cccc1Cl	2.1%

Further structures:
item	molecule	VDR inhibitor
76	CCOC(=O)c1c(C)[nH]c(-c2csc(N)n2)c1C	-15.7%
77	CC(C)(C)C(=O)Cn1c(=O)n(-c2ccccc2)c(=O)c2c3c(sc21)CCC3	2.6%
78	O=C(Nc1ccc(Cl)cc1)Nc1nnc(CSCc2ccccc2Cl)s1	18.5%
79	O=C(O)c1ccc(N/N=C/c2ccc(-c3ccccc3)cc2)cc1	-15.3%
80	CN1CCN(c2ccc(NC(=S)NC(=O)/C=C/c3ccco3)cc2)CC1	-11.6%
81	Cc1ccc(C(=O)C=Cc2cccc(C)c2)cc1	?
82	C=CCNC(=O)/C(C#N)=C/c1c(C)nn(-c2ccc(Cl)cc2)c1Cl	2.2%
83	O=C(Cc1ccc(NC(=O)C2CCCN(C(=O)C3CCC3)C2)cc1)Nc1cccc(C(=O)N2CCCC2)c1 (stereo not given)	?
84	O=C(O)C(Cc1c[nH]c2ccccc12)NS(=O)(=O)c1cccc2nsnc12 (stereo not given)	-3.0%
85	Cc1ccc(CNC(=O)c2ccc(CS(=O)(=O)Cc3ccc(C)cc3)o2)cc1	5.8%
86	COC(=O)C(NNc1ccccc1)(NC(=O)c1cccc(F)c1)C(F)(F)F (stereo not given)	6.0%
87	Cc1c(S(=O)(=O)c2ccccn2)c(N)n(Cc2cccc(Cl)c2)c1C	-3.2%
88	CCCCn1c(=O)c(-[n+]2ccccc2)c([O-])c2ccccc21	2.6%
89	COc1ccc(-c2cc(C(C)=O)c(C)n2CCC(=O)Nc2ccc(C)cc2Cl)cc1	5.3%
90	C=CCNC(=S)/N=c1/scc(C)n1C	-7.1%
91	CCCc1cc(=O)[nH]c(N2CCN(Cc3ccc4c(c3)OCO4)CC2)n1	17.0%
92	CCC(C)c1ccccc1NC(=O)c1cc(C)no1 (stereo not given)	-6.7%
93	CC(C)c1ccc(NC(=S)NCCc2c[nH]c3ccccc23)cc1	6.9%
94	O=C1Nc2ccccc2N(O)N1c1cc(-c2ccccc2Cl)no1	2.1%
95	CCCOc1ccc(/C=N/Nc2cc(N3CCOCC3)ncn2)c(O)c1	-13.6%
96	CCc1ccc(-c2cn3c(n2)sc2cc(C(=O)NC4CCCCCC4)ccc23)cc1	-11.3%
97	CC(=O)N(C)C1=C(O)c2ccccc2C(=O)C1=O	?
98	COc1ccc(NC(=O)c2cccc(NC(=O)c3ccccc3)c2)c(OC)c1	-6.4%
99	COc1ccccc1CNC(=O)COc1cc2c(c3oc(=O)cc(C)c13)CCC(C)(C)O2	-19.0%
100	CN(C(=O)CC1C(=O)NCCN1Cc1ccc(F)c(F)c1)C1CCCCC1 (stereo not given)	2.5%
101	CCn1cc(/C=N\NC(=O)c2ccc3c(c2)c(C)c(C)n3Cc2ccccc2)c(C)n1	-2.4%
102	COc1ccc(NC(=O)N2CCN(C(=O)C3CCCO3)CC2)cc1 (stereo not given)	7.1%
103	O=C(c1cc2ccccc2o1)N1CCN(c2cccc(C(F)(F)F)c2)CC1	0.2%
104	Cc1csc2nc(O)c(C(=O)NCc3ccc4c(c3)OCO4)c(=O)n12	-5.7%
105	O=C(Nc1cccc2nsnc12)c1cccnc1	-9.1%
106	O=c1[nH]c(=O)n([C@H]2C[C@H](O)[C@@H](CO)O2)cc1C(F)(F)F	3.7%
107	Cc1cccc(OCc2n[nH]c(=S)n2C2CCCCC2)c1	0.1%
108	CCCC(NC(=O)c1ccccc1)c1nc2ccccc2n1Cc1ccc(C(=O)OC)o1 (stereo not given)	12.0%
109	CCOC(=O)C1(CCc2ccccc2)CCN(C(=O)Cc2nonc2C)CC1	2.4%
110	CCSc1ncc(Cl)c(C(=O)Nc2ccccc2C)n1	-5.1%
111	Cc1ccc(NC2c3ncccc3C(=O)N2Cc2ccc(F)cc2)cc1 (stereo not given)	-7.0%
112	O=c1c2oc3ccccc3c2[nH]c(=S)n1-c1ccccc1	-18.8%
113	CCCNC(=S)Nc1ccc(S(N)(=O)=O)cc1	1.9%
114	Cc1ccc2nc(NC(=O)c3ccccn3)sc2c1	-10.3%
115	O=C(c1ccc(-n2cncn2)c([N+](=O)[O-])c1)N1CCN(S(=O)(=O)c2ccccc2F)CC1	-27.8%
116	CCOC(=O)c1c(SCCN2CCCC2)n(-c2ccccc2)c(=S)n(-c2ccccc2)c1=O	70.8µM*
117	CN(CC(=O)Nn1cnnc1)S(=O)(=O)c1cc(Cl)ccc1Cl	0.9%
118	CCC(Sc1nc2cc3c(cc2c(=O)n1CCCCCC(=O)NCc1ccc2c(c1)OCO2)OCO3)C(=O)NCCCOC (stereo not given)	24.8%
119	CCn1cc(C(=O)NCCCN2CCCC(C)C2)c(=O)c2cc(S(=O)(=O)N3CCOCC3)ccc21 (stereo not given)	-6.9%
120	CCCCN(C(=O)CSc1nn(-c2ccc(F)cc2)c(=S)s1)c1c(N)n(CCCC)c(=O)[nH]c1=O	-3.6%
121	COc1ccc(CNC(=O)c2csc(Cc3ccccc3)n2)cc1	-2.2%
122	CCOc1ccc(-n2nc(CO)c(C(=O)NCc3cccs3)n2)cc1	6.9%
123	Cc1ccc(C(=O)C2CCN(S(=O)(=O)c3ccccc3C(=O)O)CC2)cc1	19.3%

Among those listed so far, six contain a COOH group:
item	molecule	VDR inhibitor
39	CC1CCc2c(sc(NC(=O)Cn3nc(C(=O)O)c4ccccc4c3=O)c2C#N)C1 (stereo not given)	-8.9%
48	O=C(CCCc1c[nH]c2ccccc12)N[C@@H](Cc1c[nH]c2ccccc12)C(=O)O	-7.2%
73	CCC(Sc1ncccc1Nc1ccccn1)C(=O)O (stereo not given)	?
79	O=C(O)c1ccc(N/N=C/c2ccc(-c3ccccc3)cc2)cc1	-15.3%
84	O=C(O)C(Cc1c[nH]c2ccccc12)NS(=O)(=O)c1cccc2nsnc12 (stereo not given)	-3.0%
123	Cc1ccc(C(=O)C2CCN(S(=O)(=O)c3ccccc3C(=O)O)CC2)cc1	19.3%
